# Screening results deposited in PubChem by several laboratories.
# AF4-AF9 inh – MLL-AF4/AF9 protein interaction inhibition. actives 0.47% (n = 350,000). inhibition, % at 10 µM. AlphaScreen, biotin-AF4 peptide binding to FLAG-AF9. P42568. AID 651704;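 active = every replicate reaching a set inhibition limit, whatever the replicate mean, cut at about 25% in these data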;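 also: 0% = plate neutral control median and 100% = total signal loss; the record names both 10 and 1 µM as test concentration; the first replicate is given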
# Target sequence (P42568 whole entry, looked up): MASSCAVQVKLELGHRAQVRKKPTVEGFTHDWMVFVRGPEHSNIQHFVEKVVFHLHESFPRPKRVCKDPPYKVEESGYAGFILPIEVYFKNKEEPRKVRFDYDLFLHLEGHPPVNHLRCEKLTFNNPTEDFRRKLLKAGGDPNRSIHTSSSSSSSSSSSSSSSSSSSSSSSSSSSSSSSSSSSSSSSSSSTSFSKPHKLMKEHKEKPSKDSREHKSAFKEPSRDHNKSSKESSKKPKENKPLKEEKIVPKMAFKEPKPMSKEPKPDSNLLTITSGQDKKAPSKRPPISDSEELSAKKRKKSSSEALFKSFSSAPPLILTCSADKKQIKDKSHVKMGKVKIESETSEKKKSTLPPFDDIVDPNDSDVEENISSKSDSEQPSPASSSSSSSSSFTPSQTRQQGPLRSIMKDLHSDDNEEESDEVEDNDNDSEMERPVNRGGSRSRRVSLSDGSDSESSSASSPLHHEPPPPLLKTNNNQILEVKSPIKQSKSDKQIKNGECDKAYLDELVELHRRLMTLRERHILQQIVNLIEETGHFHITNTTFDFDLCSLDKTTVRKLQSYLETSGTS
# A1 inh – inhibitors of the anti-apoptotic protein A1, read as caspase activation; MEF A1-2A-BIM cells, Caspase-Glo 3/7 luminescence, 3 h; percent of clofoctol response, vehicle zero; caspase activation, % (test concentration not listed); actives 0.066% (n = 330,000); AID 2462;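 active = over half of replicate activation scores above 10%, or exactly half above 10 with the replicate mean above 10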;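 also: wells of about 30 µL received 50 nL stock; many hits fall short of the cut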
# Beta cell apopt – blocks beta cell apoptosis; INS-1E cytokine-induced death, ATP luminescence, 48 h; percent of positive-control rescue, neutral wells zero; protection from apoptosis, % (test concentration not listed); actives 0.8% (n = 300,000); AID 435005;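 active = all replicates at 75% or more, or half of them and the mean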;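 also: 0% = cytokine-treated negative control wells and 100% = positive control rescue; higher means more ATP so stronger rescue from cytokine killing; wells of about 40 µL received 100 nL stock; the first replicate is given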
# E coli growth – blocks Escherichia coli growth | OD600, 23 h; active compounds read low | OD600 absorbance (concentration not given with the values) | actives 0.21% (n = 330,000) | AID 1053175;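 active = OD600 absorbance below the run mean of sample wells minus 3.6 SD, in any replicate, cut at about 0.56 in these data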;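 also: stock transfer was 300 nL into about 60 µL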
# FGF22 binding – shifts melting point of recombinant human FGF22 | recombinant FGF22 thermal shift, SYPRO orange fluorescence; percent of sucrose octasulfate shift, DMSO zero | actives 1.5% (n = 340,000) | calls only at 9.99 µM;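 active = melting point raised past a set limit in the mean and every replicate; three in four hits are not shown here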
# Target sequence (Q9HCT0 whole entry, looked up): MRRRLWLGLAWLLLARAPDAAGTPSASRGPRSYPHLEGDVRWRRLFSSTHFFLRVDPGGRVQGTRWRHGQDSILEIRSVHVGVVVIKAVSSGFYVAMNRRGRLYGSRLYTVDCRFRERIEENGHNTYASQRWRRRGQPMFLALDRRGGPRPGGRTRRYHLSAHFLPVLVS
# rRNA inh HTS – selective bacterial rRNA inhibition in E. coli; GFP signal change (wild-type ribosome), % (no concentration beside the values); actives 1.6% (n = 350,000); E. coli WT GFP vs humanized-ribosome RFP mutants, fluorescence, 24 h; active compounds read low; DMSO median 0, no signal -100; AID 720706;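 active = significant combined selectivity score with lowered wild-type GFP, culture density cut under 30%, mutant RFP and density less affected; inactive = any of these conditions unmet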; also: one replicate is shown; some compounds called inactive have numbers as strong as hits
# T cruzi inh – T. cruzi replication inhibition; T. cruzi beta-gal in NIH3T3, luminescence, 90 h; inhibition, % (concentration not given with the values); actives 1.4% (n = 300,000); AID 1885;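 active = mean inhibition across valid replicates above about 55%, limit read from the data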;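 also: signal also drops with host cell toxicity which is not excluded here; 0% = plate median of DMSO wells and 100% = zero luminescence signal; higher percent means less beta-gal luminescence so fewer parasites; stock transfer was 50 nL into about 50 µL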
# UCH37 inh – human UCH37 deubiquitinating enzyme inhibition; inhibition, % (no concentration beside the values); purified proteasome/UCH37, Ub-AMC cleavage fluorescence; AID 588478; Q9Y5K5; actives 0.33% (n = 330,000);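 active = mean of two replicates above 20%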;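 also: 0% = compound-free wells with enzyme and 100% = wells lacking proteasome; stock transfer was 100 nL into about 20 µL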
#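 Material: Human UCH37 enzyme supplied as purified proteasome complex | Schedule: 30 min preincubation with enzyme, 25 min cleavage at room temperature | Detection: AMC fluorescence 355/460 nm | Measure: % inhibition of Ub-AMC cleavage fluorescence | Controls: Wells without proteasome as full block, compound-free enzyme plus substrate as uninhibited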
# rRNA inh HTS OD600 – further read-out of rRNA inh HTS, marked with its call; OD600 change, %; measured here: OD600 growth;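 optical density of the mix in the first replicate; 0 = DMSO median and -100 = no signal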
# rRNA inh HTS RFP – recorded beside rRNA inh HTS, whose call it bears; RFP signal change, %; measured here: RFP humanized mutant strains;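 first replicate; 0 = DMSO median and -100 = no signal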
# * marks the source's active call; other numbers are inactive results; i = inactive; . = not tested or not shown; + = active, no number. Not all compounds are listed. The share of hits here may be higher or lower than overall.
SMILES,AF4-AF9 inh,A1 inh,Beta cell apopt,E coli growth,FGF22 binding,rRNA inh HTS,rRNA inh HTS OD600,rRNA inh HTS RFP,T cruzi inh,UCH37 inh
CC(=O)c1ccc(OCC(O)CN2C(C)(C)CC(O)CC2(C)C)cc1 (centres undefined),-6.2,-0.1,1,0.66,i,4,2,-8.6,9,3.3
O=C(C[C@@H]1C/C=C/CC[C@H](Cc2ccc(F)cc2)C(=O)OCCNC1=O)N[C@H](CO)Cc1ccccc1,-0.5,0.1,-2,0.67,i,-4,-4,2.0,.,1.1
O=C(CSCc1ccc(C(=O)O)cc1)Nc1ccccc1,-1.5,0.8,.,0.69,i,8,5,-2.5,-10,-1.3
CCOc1ccc(C(=O)NC(=S)Nc2ccccc2N2CCC(C)CC2)cc1[N+](=O)[O-],.,0.4,13,0.76,.,.,.,.,55*,4.8
COc1ccccc1N(CC(=O)NC(C)(C)C)C(=O)CCC(=O)Nc1ccccn1,-1.1,1.0,-2,0.71,i,4,5,-1.2,13,3.6
CCN(C(=O)CSc1nc2ccccc2n1C)C1CCS(=O)(=O)C1 (centres undefined),-1.3,2.6,0,0.71,i,.,.,.,.,2.8
CCOC(=O)/C(Sc1nc(-c2ccccc2)cc(-c2ccccc2)c1C#N)=C(\C)O,-5.4,-0.6,-1,0.69,i,7,-7,-1.2,15,-4.6
CCc1cccc(NC(=O)Cn2cc(C=O)c3ccccc32)c1,1.1,0.5,13,0.71,i,-14,-21,0.6,-4,0.0
O=C(CSc1ccccn1)N/N=C/C=C/c1ccccc1,2.8,-0.6,-2,.,i,-10,-9,-3.2,-7,.
Cc1cc(C)cc(NC(=O)CCn2c(=O)c3cccn3c3ccccc32)c1,0.5,0.6,3,0.7,i,4,18,-0.2,-20,0.3
CCOC(=O)c1nnn(-c2nonc2N)c1CNc1ccc(C)c(Br)c1,.,0.3,7,0.68,.,.,.,.,1,5.7
CCC1CCCCN1CCCNC(=O)Cn1cnc2sc(C)c(S(=O)(=O)N3CCC(C)CC3)c2c1=O (centres undefined),0.4,-0.2,0,0.69,i,6,5,0.8,1,4.3
CCCCC1CCCOC(C(=O)NCCNCCO)(C(F)(F)F)C1 (centres undefined),-6.7,0.5,-13,0.81,i,7,8,0.9,8,1.2
COc1ccc(/C=N\NC(=O)c2ccccc2[N+](=O)[O-])cc1COc1c(F)c(F)c(F)c(F)c1F,-2.0,0.8,-5,.,+,0,-10,-1.1,11,.
CCCCSc1nc2c(c(=O)[nH]1)CCC2,-62,0.9,0,0.69,i,-6,-17,-1.8,-4,5.2
Nc1ccc(S(=O)(=O)NCc2ccccn2)cc1,-31,2.8,-5,0.69,i,8,10,-2.3,-10,2.8
CS(=O)(=O)c1ccc(Cl)c(NC(=O)COC(=O)c2c(Cl)cccc2Cl)c1,-1.5,0.4,-3,0.74,i,-26*,-8.5*,-2.6*,5,1.8
Cc1cccc(NC(=O)CNC(=O)c2ccco2)n1,4.7,-0.3,.,0.65,i,7,15,1.0,-6,0.4
COC(=O)c1cc(CNC(=O)c2ccc(S(=O)(=O)N(C)c3ccccc3)cc2)ccc1OC,3.6,.,.,0.69,i,5,-14,-1.0,.,3.1
Cn1nc(C(=O)Nc2cccnc2)c2ccccc2c1=O,.,-0.1,.,0.69,.,.,.,.,-6,1.4
CCn1c(COc2c(C)cccc2C)nnc1SCC(=O)N1CCN(c2ccccc2)CC1,.,0.9,-9,0.69,.,.,.,.,12,1.6
COc1ccc(C(=O)N/N=C(/C)c2cccc(NC(=O)c3ccncc3)c2)cc1OC,1.6,0.2,5,.,i,2,-2,4.5,1,.
Cc1nn(-c2ccccc2)c(C)c1NC(=O)COC(=O)c1ccccc1OC(F)F,-0.8,0.1,.,0.69,i,20,15,2.4,-12,2.6
Cc1cc(C)nc(N2CCCC(C(=O)NCc3cccc(C(F)(F)F)c3)C2)n1 (centres undefined),.,0.1,1,0.66,.,.,.,.,-4,1.1
Cc1cc(C(=O)OCC(=O)Nc2ccc(F)c(F)c2F)c(C)o1,-1.5,0.7,.,0.7,i,19,5,-0.7,-6,3.1
O=C(COc1ccc(Cl)cc1)NCc1nnc(SCC(=O)NC2CCCCC2)o1,.,0.5,-10,0.77,.,.,.,.,3,-0.1
COCCCN1CC(=O)N2C(c3ccccc3)c3[nH]c4ccccc4c3C[C@H]2C1=O (some centres undefined),1.4,-0.4,-2,0.64,i,-5,-2,-1.2,-9,1.9
COc1ccc2nc(C3CCCCC3)c3c(c2c1)CCC3,-9.3,-0.1,4,0.67,i,-11,0,1.9,8,2.7
Cc1cccc(C2c3[nH]c4ccccc4c3CCN2C(=O)c2cc(CC(C)C)nc(C)n2)n1 (centres undefined),8.3,0.5,0,0.75,i,-8,-12,-2.9,-19,-1.0
Cc1cccc(NC(=O)CSCC(=O)Nc2cccc(S(=O)(=O)N3CCCCCC3)c2)c1,1.1,-0.6,.,0.7,i,-40,-51,-8.7,10,-0.2
CCOC(=O)c1ccc(NC(=O)CCN2C(=O)C3CC=CCC3C2=O)cc1 (centres undefined),0.3,.,.,0.68,i,-1,0,0.0,.,1.7
Cc1nn(Cc2ccc(Cl)cc2)c(=O)n1N(C)c1ncc(C(F)(F)F)cc1Cl,.,1.4,8,0.71,.,.,.,.,23,3.5
CC(=O)NN1C(=O)c2ccccc2NC1c1ccoc1 (centres undefined),-0.6,0.1,-1,0.69,i,22,19,-0.1,-5,-407
CC1c2nc3ccccc3n2C(CC(=O)NCc2ccccn2)C(=O)N1Cc1ccccc1 (centres undefined),.,-0.2,-1,0.68,.,.,.,.,-11,0.8
CCOC(=O)CCCNC(=O)COC(=O)/C=C/c1ccc2c(c1)OCO2,-1.3,2.4,-4,0.65,i,3,-2,3.6,-8,-52
O=C(O)c1ccc(Cl)c(S(=O)(=O)NC(Cc2ccccc2)C(=O)O)c1 (centres undefined),-1.6,-0.4,-5,0.71,i,7,0,2.2,-4,3.4
COc1ccc2[nH]c3c(c2c1)CCn1c-3nc2ccccc2c1=O,-10,-4.0,7,0.7,.,.,.,.,.,-49
O=C(Oc1ccc(N2C(=O)CCC2=O)cc1)c1ccccc1,.,1.2,4,0.73,.,.,.,.,-8,2.7
COC(=O)[C@@H]1C[C@@H](C(=O)O)[C@H](C)C1(C)C,-8.7,0.1,1,.,i,2,-1,12,.,4.9
CC(C)(C)SCCNS(=O)(=O)c1ccc2ccccc2c1,.,0.2,-2,0.66,.,.,.,.,-4,1.0
COC(=O)c1sc2ncn(N)c(=O)c2c1C,.,0.0,5,0.7,.,.,.,.,-17,-1.8
COC(=O)c1[nH]c2cc(OC)ccc2c1NC(=O)CCN1CCCCC1,.,-0.2,-2,0.75,.,.,.,.,1,-4.2
CC(C)n1c(-c2cccs2)nc2ccccc21,.,0.2,-2,0.64,.,.,.,.,0,-3.3
O=C(Nc1ccc(Cl)c(S(=O)(=O)N2CCCCC2)c1)c1ccco1,-0.9,-0.4,-4,0.71,i,-17,-37,-6.3,.,1.2
COc1ccc(OC)c(-c2csc(N(Cc3ccco3)C(=O)c3ccco3)n2)c1,-3.7,0.4,9,0.69,i,11,9,13,22,1.9
COc1ccc2nc(Nc3nc4cc5c(cc4s3)OCCO5)sc2c1,-19,-1.1,-5,0.67,i,20,6,1.1,-1,-77
Cc1cccc(NC(=O)C(=O)NCCCc2ccccc2)c1,-0.6,-4.6,2,0.68,i,5,11,-3.9,-4,3.3
CC(=O)Nc1ccc2c(COC(=O)[C@H](C)N3C(=O)C4CCCCC4C3=O)cc(=O)oc2c1 (some centres undefined),5.9,-0.1,-1,0.69,i,4,-1,-1.6,-9,i
CSC1=NCCN1C(=O)c1ccc(S(=O)(=O)N2CCCCC2)cc1,-0.6,0.4,0,0.71,i,9,4,1.6,3,3.0
Cc1ccc(S(=O)(=O)N2CCOCC2)cc1NC(=O)COC(=O)CCc1c[nH]c2ccccc12,1.4,0.5,-4,0.63,i,-6,-1,5.1,.,0.9
O=c1[nH]c2c(n(C3CCCCC3)c1=O)CCC2,.,-0.7,-4,0.71,.,.,.,.,-5,2.4
COc1ccc(C(=O)Oc2coc(CSc3nnc(NC(=O)c4cccs4)s3)cc2=O)cc1,.,0.1,.,0.72,.,.,.,.,-18,-11
N#Cc1nccnc1S(=O)(=O)c1cccs1,1.8,0.8,20,0.49*,.,-54,-80,-17,14,2.0
COc1cccc(-c2cc(C(=O)Nc3cc(C)on3)no2)c1,.,-2.2,0,0.72,.,.,.,.,-4,-3.2
COC(=O)c1ccc(-n2c(C)cc(C(=O)COC(=O)CNS(=O)(=O)c3ccc(C)cc3)c2C)cc1,.,0.7,-6,0.7,.,.,.,.,15,0.2
Cc1ccc(-c2cc(-c3ccccc3)nc(NN)n2)cc1,3.1,0.5,1,0.7,i,-1,8,0.4,11,0.6
CCCc1n[nH]c2c1C(=O)C(C(=O)OC)C(C)(C)C2 (centres undefined),.,0.3,4,0.72,.,.,.,.,-3,-3.0
O=C(NCCc1c[nH]c2ccccc12)C(=O)NCC1OCCN1S(=O)(=O)c1ccc(F)cc1 (centres undefined),5.2,-0.3,-2,0.71,i,5,9,-0.3,-25,-0.9
CC(C)(C)CN1CCNC(=O)C1CC(=O)NCCc1cnn(-c2ccccc2)c1 (centres undefined),0.7,0.2,-5,0.66,i,-5,-8,2.1,26,-6.2
Cc1noc(C)c1COC(=O)CNC(=O)c1cccc(F)c1,-1.1,-0.4,-4,0.66,i,9,11,3.2,-6,-0.9
# (cont.)
SMILES,AF4-AF9 inh,A1 inh,Beta cell apopt,E coli growth,FGF22 binding,rRNA inh HTS,rRNA inh HTS OD600,rRNA inh HTS RFP,T cruzi inh,UCH37 inh
CCCCC(=O)Nc1nc2c(OC)ccc(OC)c2s1,-1.3,0.1,0,0.78,i,-2,3,-3.0,5,0.3
CNC(=S)NNc1nncc2ccccc12,-11,-0.1,-6,0.72,i,0,2,-1.0,-31,0.2
O=C(CC1C(=O)NCCN1C(=O)Nc1ccccc1)Nc1cccc(Cl)c1 (centres undefined),1.6,-0.2,-9,0.67,i,1,-3,3.7,-5,4.0
O=C(CCCN1C(=O)/C(=C\c2cccs2)SC1=S)Nc1cc([N+](=O)[O-])ccc1O,-1.0,-0.4,13,0.71,i,4,1,-0.2,-21,1.8
CCOc1ccc(S(=O)(=O)N2CCCCC2)cc1NC(=O)c1cccnc1OCC,-1.5,-2.1,2,0.73,i,2,7,-2.5,.,-14
